High-throughput results: PubChem BioAssay, several laboratories
Hsc70 ATP site – small molecules displacing fluorescent ligand from Hsc70 – biochemical, fluorescence polarization, primary screen (AID 568); Hsc70 fluorescence polarization, probe displacement; higher % means a stronger effect; strong numbers were not always called active; one-dose displacement, % at 20 µM; IC50 in µM for titrated hits; 83,000 tested, under 10 active;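 active means displacement above 50% without optical interference and an IC50 on retest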;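 further: ATPase domain with a fluorescein-tagged ATP probe; 0% = vehicle and 100% = excess ADP; read after one hour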
WNV NS2B-NS3 inh – blocks West Nile virus NS2B-NS3 protease activity | P06935 | WNV NS2B-NS3 protease, fluorogenic substrate Ex360/Em465; active compounds read low | z-score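 (tested at a level between 10 and 100 µM)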 | 0.18% of 65,000 active | AID 577;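 active means z-score at -3 or under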;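 further: score is relative to mean and spread of the compound wells of a plate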
Target sequence (P06935 1371-1501 limits assumed): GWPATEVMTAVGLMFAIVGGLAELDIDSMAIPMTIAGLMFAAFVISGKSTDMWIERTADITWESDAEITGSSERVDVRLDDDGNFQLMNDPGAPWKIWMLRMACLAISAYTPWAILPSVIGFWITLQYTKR
Target sequence (P06935 1502-1679 limits assumed): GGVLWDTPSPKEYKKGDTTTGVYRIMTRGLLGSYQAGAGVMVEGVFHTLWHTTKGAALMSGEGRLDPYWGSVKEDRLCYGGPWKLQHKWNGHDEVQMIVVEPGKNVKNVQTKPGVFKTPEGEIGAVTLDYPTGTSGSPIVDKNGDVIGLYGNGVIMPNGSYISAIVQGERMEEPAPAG
MT1-MMP reporter – MT1-MMP gene expression reporter suppression – cell-based, luciferase reporter, luminescence (AID 618); MT1-MMP promoter luciferase reporter cells, luminescence; calls from a first round at 10 µM; hits with a dose series show EC50 in µM; 0.62% of 87,000 active;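 active means over half of the reporter light lost at 10 µM or EC50 under 50 µM; inactive means the rest and hits that failed the dose series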;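 further: actives suppress MT1-MMP promoter-driven transcription so potencies describe inhibitors; HT1080 fibrosarcoma cells; overnight exposure; toxic or luciferase-blocking compounds were not removed from the actives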
* hit, by the source's call; i = inactive; . = not tested or not shown.

Second line of a record: Hsc70 ATP site | WNV NS2B-NS3 inh | MT1-MMP reporter
- CCOC(=O)/C(C#N)=C1/C=CN(C)C=N1
→ -3.0% | -0.97 | i
- CC(COc1cccc2ccccc12)CN1CCN(C)CC1 (stereo not given)
→ -6.8% | 0.8 | i
- Cc1cc(NC(=O)CSc2nnc(C3CC3)n2N)no1
→ -1.0% | 1.5 | i
- CC(=O)NC1(c2cccc(F)c2)CCN(C(=O)Nc2ccc(C#N)cc2)CC1
→ 1.0% | -0.56 | i
- COc1ccc(Cl)cc1NC(=O)C(C)Sc1nncn1C (stereo not given)
→ 2.2% | . | i
- COc1ccc(C(=O)N(C(C)C)C(C)C)c(OC)c1
→ 5.2% | . | i
- CS(=O)(=O)N1CCc2cc(-c3csc(NCC4CCCO4)n3)ccc21 (stereo not given)
→ 6.0% | -0.57 | i
- Cc1ccc(NC(=O)NC2CCCCC2)cc1Cl
→ 2.3% | 0.28 | i
- COCCN1C(=O)c2oc3cc(C)c(C)cc3c(=O)c2C1c1ccc(O)cc1 (stereo not given)
→ 2.4% | 0.05 | i
- COC(=O)c1ccc(NCC(=O)c2ccccc2)cc1
→ -2.5% | 1.1 | i
- Cc1cc(C(F)(F)F)nc(SCC(=O)Nc2cc(C)on2)n1
→ 0.4% | . | i
- CCOC(=O)c1sc(NC(=O)CCn2nnc3ccccc32)c(C(=O)OCC)c1C
→ -48% | -0.34 | i
- CN1C(=O)SC(Nc2ccccc2C(=O)O)C1=O (stereo not given)
→ 0.1% | 1.2 | i
- CCCCCOC(=O)C1=C(C)N(C)C(=O)NC1c1cc(Br)c(O)c(OC)c1 (stereo not given)
→ -0.7% | -0.64 | i
- Cc1cc(-n2c(C)cc(C(=O)CSc3nnc4sc5ccccc5n34)c2C)no1
→ 3.2% | 0.42 | i
- CCSc1nc(=S)n(CC)c(C)c1C(C)=O
→ -4.2% | -0.56 | i
- COc1cccc(NS(=O)(=O)c2ccc(OC)c(OC)c2)c1
→ -2.2% | -0.48 | i
- Cc1c(NC(=O)c2cnn3c(C(F)(F)F)cc(-c4ccco4)nc23)c(=O)n(-c2ccccc2)n1C
→ 3.2% | -0.09 | i
- Cc1cc(Oc2ccccc2)nc(-c2ccccc2)n1
→ -2.5% | 0.7 | i
- CCOC(=O)N1CCN(C(=O)c2ccc3c(c2)N(CC)CCS3)CC1
→ 1.6% | -0.66 | i
- C=CCn1c(SCC(=O)Nc2sc(C)c(C)c2C(=O)OCC)nnc1-c1sc(N)nc1C
→ 2.1% | 0.92 | i
- O=C1C2(c3ccccc3)CN(CCO)CC1(c1ccccc1)CN(CCO)C2
→ 1.6% | . | i
- CC1CCCC(C)N1C(=O)CSc1nnc(C2CCCCC2)o1 (stereo not given)
→ 0.2% | -1 | i
- CN1C2C=C3C(C#N)=C(N)C(C#N)(C#N)[C@H](c4c(F)cccc4F)[C@H]3C1CC2 (stereo not given in full)
→ 1.7% | . | i
- O=C1CSC(c2ccccc2F)N1c1cc(Cl)ccc1O (stereo not given)
→ 2.8% | -0.87 | i
- CC1=C/C(=C\c2ccc3c(c2)OCO3)C(=O)S1
→ 2.0% | 1.4 | i
- Cc1ccc2nc(SCC(=O)c3ccc(Cl)s3)[nH]c2c1
→ -0.4% | . | i
- CCn1ncc(Br)c1C(=O)NC(C)c1ccccc1 (stereo not given)
→ 0.1% | . | i
- N#CC1=C(N)Oc2n[nH]c(-c3ccccc3)c2C1c1cccnc1 (stereo not given)
→ -5.8% | 1.6 | i
- Cc1csc(NC(=O)CSc2nc(C)nc3c2c(=O)n(C)c(=O)n3C)n1
→ 2.2% | -2.4 | i
- N#Cc1ccc(C(=O)NCC(c2ccco2)N2CCCC2)cc1 (stereo not given)
→ -2.4% | . | i
- COc1cccc(N2C(=O)C3CCCN3C2c2ccc(N(C)C)cc2)c1 (stereo not given)
→ 0.7% | -1.4 | i
- CCCNC(=O)c1c(N)n(-c2cccc(OC)c2)c2nc3ccccc3nc12
→ 1.7% | 0.15 | i
- Cn1c(=O)c2ncn(CC(=O)NC3CCCCCC3)c2n(C)c1=O
→ -0.2% | . | i
- CC1(C)CC(=O)C2=C(C1)OC(N)=C(C#N)C2Cc1ccccc1 (stereo not given)
→ -5.7% | -0.42 | i
- CC1CCC(C(C)C)C(OC(=O)COC(=O)c2ccc(=O)[nH]c2)C1 (stereo not given)
→ -0.1% | 0.46 | i
- Cc1c(NC(=O)C(C)OC(=O)CNC(=O)c2ccccc2)c(=O)n(-c2ccccc2)n1C (stereo not given)
→ -2.7% | . | i
- Cc1oc2c(c1C(=O)Nc1cccc3ccccc13)CCCC2
→ -3.3% | . | i
- COc1cc2[nH]c3c(N4CCC(C(N)=O)CC4)ncnc3c2cc1OC
→ -9.5% | -0.36 | i
- CCCn1c(SCC(=O)NC(C)C23CC4CC(CC(C4)C2)C3)n[nH]c1=O (stereo not given)
→ 1.7% | . | i
- Cc1nnc(N2C(=O)C(O)=C(C(=O)c3ccco3)C2c2ccc(C(C)C)cc2)s1 (stereo not given)
→ 60% | . | i
- CCCCCCOC(=O)Cc1c(C)nc(-c2ccccc2)[nH]c1=O
→ 0.7% | . | i
- Cc1ccc(C)c(OCc2nnc(NC(=O)c3ccco3)s2)c1
→ -1.1% | -1.3 | i
- COC(=O)c1ccccc1NS(=O)(=O)c1ccc(O)c(C(=O)O)c1
→ -0.3% | -1.6 | i
- CC(C)c1nnc(NC(=O)C2CCCN2S(=O)(=O)c2ccc(Cl)cc2)s1 (stereo not given)
→ -1.8% | -1.2 | i
- N#C/C(C(=O)N1CCOCC1)=C1/SC(Cc2ccccc2)C(=O)N1c1ccccc1 (stereo not given)
→ 1.9% | 0.25 | i
- COc1ccc(-n2c(=S)[nH]c3ccccc32)cc1
→ -2.7% | . | i
- CCN(CCC(=O)O)c1ccccc1
→ -1.2% | . | i
- Cc1ccc(-n2c(SCC(N)=O)nnc2-c2ccccn2)cc1
→ 5.0% | -1.3 | i
- C/C(Cn1cnc([N+](=O)[O-])n1)=N\NC(=O)c1ccccc1F
→ -4.2% | . | i
- Cc1cc(NC(=O)Cn2nnc3sc4c(c3c2=O)CCC(C(C)(C)C)C4)no1 (stereo not given)
→ -9.2% | 0.26 | i
- CN(C)c1nc(C(=O)Nc2ccccc2)nc(N(C)C)n1
→ -2.2% | 1.7 | i
- O=C1CCc2cc(S(=O)(=O)N3CCC(C(=O)NC4CCCc5ccccc54)CC3)ccc2N1 (stereo not given)
→ -7.6% | 0.0034 | i
- O=P1(c2ccccc2)C=Cn2c1cc1c2CCCC1 (stereo not given)
→ 1.9% | -0.28 | i
- O=C(NC1(C(F)(F)F)NC(=O)N(Cc2cccnc2)C1=O)c1ccccc1 (stereo not given)
→ -5.4% | . | i
- O=C(Nn1c(C2CCC2)nc2ccccc2c1=O)C1CCC1
→ 0.0% | 1.8 | i
- O=C(c1noc2c1CCCC2)N1CCN(c2ccc(F)cc2)CC1
→ -6.3% | 1.1 | i
- COc1ccccc1N1CCN(CCN2C(=O)CC(=C3c4ccccc4-c4ccccc43)C2=O)CC1
→ 5.5% | . | i
- C=CCNC(=O)c1ccc(OC)cc1OC
→ -0.9% | -1.4 | i
- CC1CCCCN1C(=O)Nc1cccc(Cl)c1 (stereo not given)
→ 2.0% | -0.55 | i

The list goes on.
SMILES	Hsc70 ATP site	WNV NS2B-NS3 inh	MT1-MMP reporter
CCOc1ccc(C2NC(=O)c3ccccc3O2)cc1 (stereo not given)	-7.4%	-1.3	i
CC(=O)NC1=NN(C(C)=O)C(C)(CS(=O)(=O)c2ccc(Cl)cc2)S1 (stereo not given)	2.1%	.	i
C=C(C)c1cccc(C(C)(C)NC(=O)N2CCN(c3ccccn3)CC2)c1	-2.8%	-0.1	i
COc1ccc(C2=C(N)c3ccccc3C2=O)cc1	1.8%	1.3	i
O=C(CCc1ccccc1)Nc1ccccc1C(=O)NCc1ccco1	5.5%	.	i
CCNC(=O)CSc1nc2ccccc2c(=O)n1CCCOC(C)C	4.5%	-0.93	i
O=c1cc2c(n[nH]1)CCCC2	-1.7%	2	i
COc1ccc(NC(=O)CSc2nnc(-c3ccco3)n2C)cc1	-5.3%	-0.67	i

Compounds from the list above that contain bromine (2):
SMILES	Hsc70 ATP site	WNV NS2B-NS3 inh	MT1-MMP reporter
CCCCCOC(=O)C1=C(C)N(C)C(=O)NC1c1cc(Br)c(O)c(OC)c1 (stereo not given)	-0.7%	-0.64	i
CCn1ncc(Br)c1C(=O)NC(C)c1ccccc1 (stereo not given)	0.1%	.	i

An excerpt from above in order of heavy-atom count, high to low:
SMILES	Hsc70 ATP site	WNV NS2B-NS3 inh	MT1-MMP reporter
CCOc1ccc(C2NC(=O)c3ccccc3O2)cc1 (stereo not given)	-7.4%	-1.3	i
COc1ccc(C2=C(N)c3ccccc3C2=O)cc1	1.8%	1.3	i
O=c1cc2c(n[nH]1)CCCC2	-1.7%	2	i

Following part
SMILES	Hsc70 ATP site	WNV NS2B-NS3 inh	MT1-MMP reporter
CCCOC(=O)CSc1nc(N)c(C#N)c(-c2ccco2)c1C#N	-0.8%	.	i
CCCC(=O)Nn1cnc2c(c1=O)C1(CCCC1)Cc1ccccc1-2	-1.2%	0.03	i
COC(=O)C1CCN(CC(N)=O)CC1	-2.2%	.	i
COc1ccc2c(c1)C1(Nc3ccccc3-c3nc4ccccc4n31)C(=O)N2C (stereo not given)	-8.0%	-1.3	i
CSc1nnc(-c2cnccn2)n1Cc1ccccc1	12%	1.1	i
CCCCOc1ccc(N(CC(=O)NCC2CCCO2)C(=O)CCC(=O)Nc2cc(C)ccn2)cc1 (stereo not given)	7.2%	.	i
COc1ccccc1-c1nc(C#N)c(N2CCCCCC2)o1	1.6%	.	i
Cc1cnc(SCCc2ccncc2)nc1C	-1.0%	-0.7	i
CCOc1cccc(C(=O)Nc2cccc(-c3nnc(-c4ccc(C)cc4)o3)c2)c1	4.2%	-0.79	i
CN(Cc1nc(-c2ccccn2)no1)S(=O)(=O)c1ccccc1	0.8%	-0.28	i
CCN(CC(=O)NC(C)C)C(=O)c1ccc(S(=O)(=O)N(C)c2ccccc2OC)cc1	2.5%	1.4	i
Cc1ccnc(N2CCCC(C(=O)Nc3cc(F)ccc3C)C2)n1 (stereo not given)	5.2%	-0.44	i
O=C(CCC(=O)N1CCCC1)Nc1nnc(C2CCCCC2)s1	-3.2%	0.56	i
O=C(CSc1nnc(Cn2c(=O)sc3ccccc32)n1CCc1ccccc1)N1CCCC1	1.9%	-1	i
CCCCNC(=O)Nc1ccon1	6.6%	-0.07	i
COC(=O)CCN(C(=O)c1cccc(OC(C)=O)c1)c1ccccn1	5.0%	.	i
COc1ccc(S(=O)(=O)N(C(C)=O)c2ccc3oc(=O)sc3c2)cc1	2.2%	-0.06	i
CCN(CC)C(=O)c1cc(-c2ccc(Br)cc2)on1	2.6%	0.74	i
CC(=O)Nc1cc(C(F)(F)F)ccc1OCC1CCCO1 (stereo not given)	2.8%	0.49	i
CCOC(=O)N1CCC(N2Cc3cccc(C(=O)N4CC(C)CC(C)C4)c3C2=O)CC1 (stereo not given)	-5.9%	-0.82	i
CCn1cnc2cc(NS(=O)(=O)c3ccc(C)cc3)ccc21	3.5%	.	i
O=C(Nc1ccccc1C(=O)N1CCCC1)C1CCN(c2ncccn2)CC1	0.2%	-0.04	i
O=C(c1ccccc1)c1nn(-c2ccccc2)c2nnc(Cc3ccccc3)c(=O)n12	-4.6%	.	i
COC(=O)c1ccc(CNC(=O)COc2ccccc2Br)o1	4.0%	0.57	i

One compound at a time, as listed above. Values in the order: Hsc70 ATP site | WNV NS2B-NS3 inh | MT1-MMP reporter
Listed for CCOC(=O)N1CCC(N2Cc3cccc(C(=O)N4CC(C)CC(C)C4)c3C2=O)CC1 (stereo not given) → -5.9% | -0.82 | i
Listed for CCn1cnc2cc(NS(=O)(=O)c3ccc(C)cc3)ccc21 → 3.5% | . | i
Listed for CC(=O)Nc1cc(C(F)(F)F)ccc1OCC1CCCO1 (stereo not given) → 2.8% | 0.49 | i
Listed for CCN(CC)C(=O)c1cc(-c2ccc(Br)cc2)on1 → 2.6% | 0.74 | i

Other records follow.
SMILES	Hsc70 ATP site	WNV NS2B-NS3 inh	MT1-MMP reporter
Clc1ccc(Cl)c(OCCN2CCOCC2)c1	3.4%	1.1	i
COc1cccc(N2CCN(C3CC(=O)N(c4ccc(Cl)cc4)C3=O)CC2)c1 (stereo not given)	5.7%	1	i
Cc1cnc(Nc2nc3ccccc3o2)nc1C(=O)Nc1cccc(C(F)(F)F)c1	-2.5%	0.09	i
COc1ccc(OC)c(C2C(C(=O)c3ccc(C)o3)=C(O)C(=O)N2CCCN2CCOCC2)c1 (stereo not given)	1.9%	-1.5	i
O=C(CN1C(=O)NC2(CCCCCC2)C1=O)c1ccc2c(c1)OCCO2	-7.4%	-0.1	i
Cc1csc(NC(=O)c2c(O)c3cccc4c3n(c2=O)CCC4)n1	-6.1%	-1.5	i
O=C(Nc1c(F)c(F)c(F)c(F)c1F)C1CCCCC1	-1.7%	0.06	i
NS(=O)(=O)c1ccc(CNC(=O)c2ccc(Br)o2)cc1	2.4%	-1.2	i
CCn1c(SCC(=O)c2cc(OC)ccc2OC)nnc1C1CC1	0.8%	-0.03	i
Cc1cc(C)n(CCc2nc(-c3cc4ccccc4o3)cs2)n1	4.3%	-0.38	i
